Luciferase inh – qHTS Assay for Inhibitors of Firefly Luciferase; Luciferin 4-monooxygenase (Photinus pyralis), P08659; purified firefly luciferase, luminescence, 8 min; Potency, µM (series often up to 57.1 µM), for the others: at the top dose activity change, negative = inhibition, actives largely listed as inhibitors; 72,000 compounds, 2.2% hits; AID 411, 2009; also: potency is read from the fitted curve at half-maximal effect; % is scaled to controls: 0 for no effect and ±100 for the full control effect; nearly all actives have a fitted effect of over 40% in size
Target sequence (P08659 whole entry, looked up): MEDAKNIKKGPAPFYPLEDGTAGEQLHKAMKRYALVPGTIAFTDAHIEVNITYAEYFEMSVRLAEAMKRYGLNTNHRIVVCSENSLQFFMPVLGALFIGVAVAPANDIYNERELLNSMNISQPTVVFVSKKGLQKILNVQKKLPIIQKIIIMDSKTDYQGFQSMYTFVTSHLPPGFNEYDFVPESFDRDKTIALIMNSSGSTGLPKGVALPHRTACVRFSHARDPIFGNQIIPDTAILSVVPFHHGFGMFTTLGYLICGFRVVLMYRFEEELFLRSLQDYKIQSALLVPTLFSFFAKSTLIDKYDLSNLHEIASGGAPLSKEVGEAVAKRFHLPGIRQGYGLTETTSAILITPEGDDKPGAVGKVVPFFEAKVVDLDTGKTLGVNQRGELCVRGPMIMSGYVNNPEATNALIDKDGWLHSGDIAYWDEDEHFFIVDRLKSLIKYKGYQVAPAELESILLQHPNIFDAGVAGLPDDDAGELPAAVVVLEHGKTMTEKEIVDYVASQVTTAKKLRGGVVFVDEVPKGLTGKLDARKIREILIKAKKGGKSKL
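Substrate buffer containing 10 uM ATP (pH 7.2 imidazole, Mg2+, KCl, detergent, BSA) is dispensed, compound pinned in, then luciferase/luciferin detector mix added. After 8 min at ambient temperature, light output is measured.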
Rhodamine fluor – qHTS Assay for Spectroscopic Profiling in Rhodamine Spectral Region. max dye-equivalent concentration, M. AID 594, 2007. 59,000 compounds, 0.05% hits. Rhodamine-region fluorescence, 547/598 nm, Tris buffer; stronger effect = higher value; in the data active = max dye-equivalent concentration above about 11 nM; inconclusive = between about 1.1 nM and that limit
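Compounds in 100 mM Tris buffer, pH 8.0, were incubated 15 min at room temperature, then read at 547 nm excitation and 598 nm emission. Fluorescence was normalized against a per-plate six-point rhodamine standard curve as dye-equivalent concentration.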
Fluorescein autfl – qHTS Assay for Spectroscopic Profiling in Fluorescein Spectral Region; Compound autofluorescence, 480/540 nm, fluorescein-equivalent; stronger effect = higher value; max fluorescein-equivalent concentration, M; 59,000 compounds, 0.91% hits; AID 593, 2007; in the data active = max fluorescein-equivalent concentration above about 10 nM; inconclusive = between about 1.1 nM and that limit
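Spectral profiling of library compounds in the fluorescein window (480 nm excitation, 540 nm emission) after 15 min at room temperature in pH 8.0 Tris (100 mM). Values are dye-equivalent concentrations.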
Tau filament bind – qHTS Assay for Tau Filament Binding. recombinant tau filaments, thioflavin S fluorescence, 15 h; filaments grown with octadecylsulfate alongside compound. Microtubule-associated protein tau (Homo sapiens), P10636. AID 596, 2007. Potency, µM (top dose mostly 57.1 µM), without a hit: at the top dose activity change, negative = inhibition. 71,000 compounds, 2% hits;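 also: potency is read from the fitted curve at half-maximal effect; % is scaled to controls: 0 for no effect and ±100 for the full control effect; actives lower thioflavin S fluorescence by blocking filaments or displacing dye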
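ThS-based fibril read: tau 1 uM final, inducer ODS 30 uM final, 37 C for 15 h, ex 450/em 510 nm.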
Texas Red fluor – qHTS Assay for Spectroscopic Profiling in Texas Red Spectral Region | Compound fluorescence, Texas Red channel, 547/618 nm; stronger effect = higher value | max dye-equivalent concentration, M | 59,000 compounds, 0.06% hits | AID 587, 2007; in the data active = max dye-equivalent concentration above about 10 nM; inconclusive = between about 1.1 nM and that limit
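Compound titrations in 100 mM Tris pH 8.0 were incubated 15 min at room temperature and read at 547 nm excitation / 618 nm emission. Texas Red six-point standard curve on each plate converted fluorescence to dye-equivalent concentration.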
HEK293 cAMP ctrl – qHTS Assay for Agonists of the Thyroid Stimulating Hormone Receptor: Activators of Intracellular cAMP Concentrations in Parental HEK 293; parental HEK293 CNG cAMP sensor, membrane potential fluorescence; Potency, µM (highest dose often 57.1 µM), for the others: at the top dose activation, usual class: activators; 73,000 compounds, 2.5% hits; AID 938, 2007; also: potency is read from the fitted curve at half-maximal effect; % of control where 0% means no effect; nearly all actives have a fitted effect of over 55% in size
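Parental HEK 293 cells stably expressing a cAMP-gated CNG channel were loaded with membrane potential dye containing 100 uM RO 20-1724 for 60 min. Compound added for 30 min; depolarization read as fluorescence intensity at 590 nm.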
ERK AVP inh – qHTS Assay for Inhibitors of the ERK Signaling Pathway using a Homogeneous Screening Assay. Potency, µM (doses to about 57.5 µM), inactives show at the top dose activity, negative = inhibition, hits mostly inhibitors. HEK293-V1b, vasopressin-stimulated pERK AlphaScreen. 72,000 compounds, 0.99% hits; also: potency is read from the fitted curve at half-maximal effect; % is scaled to controls: 0 for no effect and ±100 for the full control effect; nearly all actives have a fitted effect of over 55% in size
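Phosphorylated ERK1/2 detected via AlphaScreen bead proximity in lysates of V1b-expressing HEK293 cells given 25 nM vasopressin for 5 min after 30 min compound exposure (37 °C). AC50 from Hill equation; basal DMSO 0%, vasopressin 100%.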
* marks the source's active call; other numbers are inactive results; i = inactive; ? = inconclusive; [ ] = dose if it differs, or a comment. Unless noted, calls follow the shape of the dose curve; as a rule, active = well fitted curve in the direction sought with a large enough effect; inconclusive = small, poorly fitted or top-dose-only effect, or another doubt; inactive = no such curve, though single readings can be large; an effect the other way counts as inactive or inconclusive. Some of the compounds tested; count on the stated rates, not on these rows.

Below each SMILES – Luciferase inh	Rhodamine fluor	Fluorescein autfl	Tau filament bind	Texas Red fluor	HEK293 cAMP ctrl	ERK AVP inh
CN(C)c1ncc2nc(-c3ccccc3)c(=O)n(C3CC3)c2n1
    -4%[11.4 µM]	i	i	322%	i	?	44%[activator]
Cc1nn(C)cc1CN(C)C(=O)c1cc2nc(-c3ccco3)cc(C(F)(F)F)n2n1
    1%	i	i	-8%	i	2%	-14%
N#CCCn1c(=O)c(-c2ccc(F)cc2)nc2cnc(N3CCNCC3)nc21
    2%[11.4 µM]	i	i	6%	i	5%	3%
COc1ccc2nc3c(cc2c1)c(NC(=O)C1CCCO1)nn3CC(C)C (stereo not given)
    -4%	i	i	321%	i	-14%	31%[activator]
CC1=C(C(=O)OCC2CCCO2)C(c2ccccc2OC(C)C)C2=C(CC(c3ccco3)CC2=O)N1 (stereo not given)
    -3%	i	?	7%	i	3%	4%
CN(C)c1ccc(-c2ccc3ncnc(N(C)C)c3c2)cc1
    0%[2.29 µM]	i	i	5µM*	i	-17%	?
Cn1c(=O)c2cc(NCc3ccccc3)nnc2n(C)c1=O
    4%	i	?	74%	i	12%	20%
C=CCN1C(=O)/C(=C2/Sc3ccccc3N2CCCS(=O)(=O)O)SC1=S
    -3%	i	?	99%	i	-14%	-23%
CCNc1ncc2nc(-c3cccs3)c(=O)n(Cc3ccc(F)cc3)c2n1
    0%[11.4 µM]	i	?	i	i	2%	-12%
CCOc1ccc2nc(NCCNC(=O)Nc3cccc(C)c3)c(C#N)cc2c1
    0%	i	?	356%	i	-1%	3%

One compound at a time, as listed above.
Cn1c(=O)c2cc(NCc3ccccc3)nnc2n(C)c1=O across the screens: Luciferase inh: 4%; Rhodamine fluor: i; Fluorescein autfl: ?; Tau filament bind: 74%; Texas Red fluor: i; HEK293 cAMP ctrl: 12%; ERK AVP inh: 20%
C=CCN1C(=O)/C(=C2/Sc3ccccc3N2CCCS(=O)(=O)O)SC1=S across the screens: Luciferase inh: -3%; Rhodamine fluor: i; Fluorescein autfl: ?; Tau filament bind: 99%; Texas Red fluor: i; HEK293 cAMP ctrl: -14%; ERK AVP inh: -23%

New compounds follow
Below each SMILES – Luciferase inh	Rhodamine fluor	Fluorescein autfl	Tau filament bind	Texas Red fluor	HEK293 cAMP ctrl	ERK AVP inh
CCN1CCc2c(sc3c2c(NCc2ccco2)nc2nnnn23)C1
    -1%	i	1.3e-08M*	79%	i	?	-17%
CCOC(=O)c1cc2c(=O)n3cccc(C)c3nc2n(Cc2ccco2)c1=NC(=O)c1cccnc1
    1%	i	i	120%	i	-6%	-11%
O=C(C1CCN(c2ccc(N3CCOCC3)nn2)CC1)N1CCc2ccccc2C1
    0%	i	i	-1%	i	8%	-15%
COCCn1c(=O)c(-c2ccc(Cl)cc2)nc2cnc(Oc3ccccc3)nc21
    1%[11.4 µM]	i	i	-6%	i	?	5%
COc1ccc(-c2nc3cnc(N(C)C)nc3n(C[C@H]3CCCO3)c2=O)cc1
    2%[11.4 µM]	i	i	424%	i	6%	-17%
Cc1cc2c(c(=O)n1Cc1cccnc1)C(Cc1ccccc1)C(C#N)=C(N)O2 (stereo not given)
    -5%	i	i	7%	i	9%	-20%
CCCn1c(NCc2cc(OC)ccc2OC)nc2ccccc21
    3%	i	i	-2%	i	37%	12%
CCNc1ncc2nc(-c3cc(F)cc(F)c3)c(=O)n(C)c2n1
    0%[11.4 µM]	i	i	-10%	i	11%	13%
O=c1cnc2cnc(Nc3ccccc3)nc2n1Cc1ccc(F)cc1
    1%[11.4 µM]	i	?	?	i	?	?
COc1ccccc1C1C=C(c2ccc(Cl)cc2)Nc2nc(N3C(=O)CCC3=O)nn21 (stereo not given)
    1%	i	?	i	i	-1%	-17%
Cn1cc(-c2nc3cnc(N4CCNCC4)nc3n(C3CC3)c2=O)c2ccccc21
    -1%[11.4 µM]	i	?	244%	i	-14%	?
COc1cccc(Nc2ncc3nc(C)c(=O)n(Cc4cccs4)c3n2)c1
    1%[11.4 µM]	i	i	153%	i	3.2µM*	-17%
CC(C)n1c2ccccc2c2nc3ccccc3nc21
    -5%	i	i	-23%	?	?	109%[activator]
COc1cccc(Cn2c(=O)c(-c3ccc(Cl)cc3)nc3cnc(N(C)C)nc32)c1
    -9%[11.4 µM]	i	i	-5%	?	10%	5%
COc1cccc(Cn2c(=O)c(-c3cccs3)nc3cnc(OC)nc32)c1
    1%[11.4 µM]	i	i	-8%	i	?	31%[activator]
COc1cccc(Nc2ncc3nc(-c4ccccc4)c(=O)n(C)c3n2)c1
    1%[11.4 µM]	i	?	25%	i	29%	-4%
Cc1ccc(C)c(S(=O)(=O)C(C#N)c2nc3ccccc3nc2N2CCOCC2)c1 (stereo not given)
    0%	i	?	-12%	i	-21%	-27%
CCOC(=O)CSc1nc2cc(C)cc(C)c2cc1C#N
    -2%	i	?	25%	i	?	21%
Cn1c(C(C#N)C(=O)c2ccco2)nc2ccccc21 (stereo not given)
    -9%	i	?	25%	i	19%	?
CCCCn1nc(NC(=O)c2cccs2)c2cc3cc(OC)ccc3nc21
    ?	i	i	67%	?	-5%	81%[activator]
O=C1Nc2ccc(S(=O)(=O)N3CCOCC3)c3cccc1c23
    2%	i	i	-2%	?	-2%	-10%
N#CCCn1c(=O)c(-c2ccc(F)cc2)nc2cnc(N3CCOCC3)nc21
    1%[11.4 µM]	i	i	28%	i	8%	-5%
COc1cc2c(cc1OC)C(c1cc3cc(OC)c(OC)cc3[nH]c1=O)N(C(=O)C1CC1)CC2 (stereo not given)
    4%	i	i	19%	i	13%	7%
COc1cccc(Cn2c(=S)[nH]c3ccc(N4CCOCC4)cc3c2=O)c1
    1%	i	i	40%	i	-16%	0%
CN1CCCN(C(=O)Cc2c(Cl)cccc2Cl)c2nc3ccccc3nc21
    1%	i	?	5%	i	0%	24%
Cn1c(C(=O)NCCCN2CCCC2=O)cc2c(=O)n3ccccc3nc21
    3%	i	i	-24%	i	-1%	11%
CCCCn1c(NC(=O)c2ccc(F)cc2)c(C#N)c2nc3ccccc3nc21
    1%	i	?	53%	i	1%	24%
CCNc1ncc2nc(-c3cn(C)c4ccccc34)c(=O)n(Cc3cccs3)c2n1
    1%[11.4 µM]	i	?	180%	i	11%	2%
Cc1ccc(S(=O)(=O)N2CCCC2C(=O)NCCc2nc3ccccc3[nH]2)cc1 (stereo not given)
    ?	i	i	-1%	i	0%	-5%
Cc1ccc2c(c1)c1c3n2CCN=C3CCC1
    1%	i	?	13µM*	i	7%	-12%
Cc1cc(NC(=O)CCCC(=O)NCc2cccs2)no1
    -5%	i	?	164%	?	8%	?
CCOC(=O)c1sc2c(c1C)C(c1cccs1)C1=C(CCCC1=O)N2 (stereo not given)
    0%	i	?	100%	i	-1%	-11%
COC(=O)Cc1c(C)c2ccc(OC(=O)c3ccco3)cc2oc1=O
    -9%	i	i	-2%	i	12%	4µM*
Cc1cnc(NC(=O)c2ccc(-c3nc4ccccc4s3)o2)s1
    -6%	i	?	?	i	12%	20µM*
COc1cccc(Cn2c(=O)c(-c3ccc(F)cc3)nc3cnc(N4CCNCC4)nc32)c1
    1%[11.4 µM]	i	i	?	i	13%	?
CN1CCN(c2ncc3nc(-c4cn(C)c5ccccc45)c(=O)n(-c4ccccc4)c3n2)CC1
    1%[11.4 µM]	i	?	317%	i	2%	15%
COCCn1c(=O)c(-c2cn(C)c3ccccc23)nc2cnc(Oc3ccc(OC)cc3)nc21
    0%[11.4 µM]	i	?	62%	i	?	55%[activator]
O=C(NCc1ccc2c(c1)OCO2)C1CC(=O)N(C2CCCC2)C1 (stereo not given)
    0%	i	i	-18%	i	?	3%
COc1cccc2cc(C(=O)N3CCN(C45CC6CC(CC(C6)C4)C5)CC3)c(=O)oc12
    -1%	i	i	348%	i	-1%	9%
CCN(CC)c1ccc2c(c1)OC(N)=C(C#N)C2c1cccnc1 (stereo not given)
    -6%	i	4.8e-08M*	i	i	?	19%

Part of the list above with just ERK AVP inh and HEK293 cAMP ctrl:
Molecule,ERK AVP inh,HEK293 cAMP ctrl
COc1cccc2cc(C(=O)N3CCN(C45CC6CC(CC(C6)C4)C5)CC3)c(=O)oc12,9%,-1%
CN1CCN(c2ncc3nc(-c4cn(C)c5ccccc45)c(=O)n(-c4ccccc4)c3n2)CC1,15%,2%
O=C(NCc1ccc2c(c1)OCO2)C1CC(=O)N(C2CCCC2)C1 (stereo not given),3%,?
CCOC(=O)c1sc2c(c1C)C(c1cccs1)C1=C(CCCC1=O)N2 (stereo not given),-11%,-1%
Cc1cnc(NC(=O)c2ccc(-c3nc4ccccc4s3)o2)s1,20µM*,12%
CCN(CC)c1ccc2c(c1)OC(N)=C(C#N)C2c1cccnc1 (stereo not given),19%,?

Next results follow.
Below each SMILES – Luciferase inh	Rhodamine fluor	Fluorescein autfl	Tau filament bind	Texas Red fluor	HEK293 cAMP ctrl	ERK AVP inh
CCNc1ncc2nc(CCc3ccccc3)c(=O)n(C3CC3)c2n1
    -2%[11.4 µM]	i	i	102%	i	?	?
CN(C)c1ncc2nc(-c3ccc(F)cc3)c(=O)n(Cc3cccs3)c2n1
    0%[11.4 µM]	i	i	-1%	i	16%	34%
N#CCCn1c(=O)c(-c2ccccc2)nc2cnc(Nc3ccccc3)nc21
    1%[11.4 µM]	i	i	i	i	10µM*	?
O=c1c2cc(N3CCOCC3)ccc2[nH]c(=S)n1CCN1CCCC1
    1%	i	i	-4%	i	-4%	2%
COc1ccc(OC)c(NC=C2C(=O)OC(C)(C)OC2=O)c1
    -1%	i	i	4%	i	3%	-25%
C=CCNc1sc(C(=O)c2cccs2)c(N)c1C#N
    5%	i	?	336%	i	-5%	-17%
COc1ccc(C(=O)N2CCN(c3nc4cc(C)ccc4cc3C#N)CC2)c(OC)c1
    -2%	i	?	34%	i	26%	7%
CCNc1ncc2nc(-c3ccc(Cl)cc3)c(=O)n(CCC#N)c2n1
    0%[11.4 µM]	i	i	27%	i	12%	-4%
Oc1ccccc1/C=N/c1c(-c2ccco2)nc2ccccn12
    -18%	i	?	77%	?	-4%	3%
